Assay outcomes from PubChem.
TRPV1 PAM = HTS Assay for Compounds that Act as Potentiators of the Vanilloid Receptor 1. Transient receptor potential cation channel subfamily V member 1 (Homo sapiens), Q8NER1. TRPV1-expressing cells, Fluo-8 calcium influx, capsaicin EC20 potentiation; host cell line not named in the record; control for the full effect not named in the record. potentiation, % at 8.33 µM. 320,000 compounds, 0.02% hits; active means potentiation above 80%; inconclusive means 30% to 80%; inactive means below 30%; also: 0% is about no effect
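TRPV1-expressing cells were cultured overnight at 35.5C and loaded with Fluo-8 calcium dye for 40 to 90 min at room temperature. After a 10 s baseline, compound was added and calcium influx was read kinetically for 3 min (ex 480/em 520 nm).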
CtBP-E1A inh = qHTS Assay for Inhibitors of the CtBP/E1A Interaction | CtBP / adenovirus E1A interaction (AlphaScreen) | AlphaScreen GST-E1A/His-CtBP binding, 1536-well; active compounds read low; control for the full effect not named in the record | activity change, % (concentration not given with the values) | 340,000 compounds, 0.49% hits; in the data active means activity change below about -65%; inconclusive means about -30% to -65%; inactive means above about -30%; also: % is scaled to controls: 0 for no effect and ±100 for the full control effect
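GST-E1A and His-tagged CtBP (125 nM each as 5X stock) were preincubated with pin-transferred compound for 2 h at 37 °C in the dark, then glutathione donor and nickel acceptor beads were added for 1 h before AlphaScreen reading.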
Six1-Eya2 blk = qHTS Assay for Inhibitors of the Six1/Eya2 Interaction; 360,000 compounds, 0.56% hits; activity change, % (test concentration not listed); Homeobox protein SIX1 (Homo sapiens) + Protein phosphatase EYA2 (Homo sapiens), …; AlphaScreen GST-Six1/His-Eya2 binding, biochemical; active compounds read low; control for the full effect not named in the record; in the data active = activity change below about -65%; inconclusive = about -30% to -65%; inactive = above about -30%; also: % is scaled to controls: 0 for no effect and ±100 for the full control effect
Target sequence (O00167 whole entry, looked up): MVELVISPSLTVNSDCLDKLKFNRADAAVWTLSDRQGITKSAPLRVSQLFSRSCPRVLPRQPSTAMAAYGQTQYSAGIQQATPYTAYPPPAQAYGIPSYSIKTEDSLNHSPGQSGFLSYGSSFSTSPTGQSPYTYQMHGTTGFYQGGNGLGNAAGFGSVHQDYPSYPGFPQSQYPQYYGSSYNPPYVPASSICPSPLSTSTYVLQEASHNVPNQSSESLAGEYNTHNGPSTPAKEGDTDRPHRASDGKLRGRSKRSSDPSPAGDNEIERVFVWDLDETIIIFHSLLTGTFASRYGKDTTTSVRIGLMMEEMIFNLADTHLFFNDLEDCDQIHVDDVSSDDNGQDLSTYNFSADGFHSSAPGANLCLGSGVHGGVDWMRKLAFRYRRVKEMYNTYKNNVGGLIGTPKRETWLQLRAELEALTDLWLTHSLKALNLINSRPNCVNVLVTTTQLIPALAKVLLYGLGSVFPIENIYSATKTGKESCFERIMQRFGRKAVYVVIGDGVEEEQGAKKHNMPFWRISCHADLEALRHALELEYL
Target sequence (Q15475 whole entry, looked up): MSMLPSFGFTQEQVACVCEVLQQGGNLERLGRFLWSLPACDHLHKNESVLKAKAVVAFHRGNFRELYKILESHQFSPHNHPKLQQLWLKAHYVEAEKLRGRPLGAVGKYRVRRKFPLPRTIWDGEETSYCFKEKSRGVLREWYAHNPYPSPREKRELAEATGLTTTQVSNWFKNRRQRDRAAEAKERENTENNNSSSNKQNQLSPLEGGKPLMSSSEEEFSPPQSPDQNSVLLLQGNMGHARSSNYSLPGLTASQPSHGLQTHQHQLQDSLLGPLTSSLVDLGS
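Compounds are tested against tagged Six1 and Eya2 proteins bridged by glutathione donor and nickel acceptor beads; after a one-hour incubation at 37 °C without light, AlphaScreen emission is recorded.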
PINK1 expr mod = A Quantitative High throughput Screen to Identify Chemical Modulators of PINK1 Expression; PINK1 immunofluorescence, high-content cytometry, 24 h; Potency, µM (doses to about 76.6 µM), for inactives: at the top dose activation (PINK1 increase), most hits filed as activators; 410,000 compounds, 0.2% hits; AID 624263, 2012; active = well fitted activation curve with a large enough effect; inconclusive = small, poorly fitted or top-dose-only effect; inactive = flat fitted curve, though single readings scatter; cell line not stated here;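 also: potency is read from the fitted curve at half-maximal effect; % of control where 0% means no effect; nearly all actives have a fitted effect of over 65% in size; a mitochondrial uncoupler was the plate control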
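Cells are seeded, rested 12 hours, then given compound at five concentrations or DMSO for 24 hours. After fixation, blocking and antibody staining, PINK1 amount and mitochondrial localization are scored; CCCP serves as control.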
* = called active by the depositor; ? = inconclusive; · = not tested or not shown; & = joins results of further samples. Only part of the results is shown; rates above refer to the full screens.

molecule	PINK1 expr mod	CtBP-E1A inh	TRPV1 PAM	Six1-Eya2 blk
Cc1nn(C(=O)c2cccc([N+](=O)[O-])c2C)c(C)c1S(=O)(=O)N1CCCCCC1	1.4%	·	-3	·
COc1cc(NS(=O)(=O)c2ccc(C(=O)O)cc2)c2nc(C)ccc2c1	-0.9%	·	-8	·
CC1CCc2c(sc(NC(=O)Cc3ccccc3)c2C(=O)Nc2ccc(Cl)cc2)C1 (stereo unspecified)	8.7%	·	-1	·
Cc1cccc(OCCCn2c(CCNC(=O)C3CCCCC3)nc3ccccc32)c1	?	·	-8	·
Cc1ccc2c(CC(=O)Nc3c(C(=O)c4ccc(F)cc4)oc4ccccc34)coc2c1C	3.3%	·	0	·
Cc1cc(C)c2nc(N(Cc3cccnc3)C(=O)CCS(=O)(=O)c3ccccc3)sc2c1	-0.6%	·	23	·
O=S(=O)(O)c1c(NS(=O)(=O)c2ccccc2)ccc2ccccc12	0.1%	·	8	·
Cc1ccc(S(=O)(=O)Nc2cccc3ccccc23)cc1	0.5%	·	-9	·
COc1cccc(Nc2ccc(N3CCCCC3)cc2)c1OC	?	·	-6	·
CCC(=O)NC(c1cc(Cl)c2cccnc2c1O)C1CC1 (stereo unspecified)	9.7%	·	15	·
O=c1c2ccccc2nc2sc(Nc3cccc(Cl)c3)nn12	6.2%	·	-5	·
Cc1ccc(NS(=O)(=O)c2ccccc2)c(C)c1	0.8%	·	-5	·
O=C(COC(=O)C12CC3CC(CC(Cl)(C3)C1)C2)NCc1ccco1	0.6%	·	-18	·
CC(C)OC(=O)c1c(-c2ccccc2)c(-c2ccccc2)nn(C)c1=O	-1.2%	·	-7	·
Cc1nnc(NC(=O)CSCc2cc(=O)c3ccccc3[nH]2)s1	0.2%	·	-3	·
O=C(Nc1cccc2cccnc12)c1c(Cl)cc(Cl)cc1Cl	2.3%	·	10	·

As a working copy, some entries already given:
molecule	PINK1 expr mod	CtBP-E1A inh	TRPV1 PAM	Six1-Eya2 blk
COc1cccc(Nc2ccc(N3CCCCC3)cc2)c1OC	?	·	-6	·
CCC(=O)NC(c1cc(Cl)c2cccnc2c1O)C1CC1 (stereo unspecified)	9.7%	·	15	·

Later entries:
molecule	PINK1 expr mod	CtBP-E1A inh	TRPV1 PAM	Six1-Eya2 blk
CC1=C(C(=O)Nc2ccccc2C)C(c2ccc[nH]2)n2ncnc2N1 (stereo unspecified)	2.2%	·	5	·
CCN(CCCNC(=O)c1cc2cc3ccc(OC)cc3nc2s1)c1ccccc1	2.3%	·	5	·
O=S(=O)(c1ccc2c(c1)C(O)c1ccccc1CC2)C(F)(F)F (stereo unspecified)	?	·	-2	·
CC(=O)Nc1oc(-c2cccc3ccccc23)nc1C#N	0.2%	·	-26	·
COc1cc(C2C(C(=O)Nc3ccccc3C)=C(C)Nc3nc(SCc4cc(C)ccc4C)nn32)ccc1O (stereo unspecified)	3.8%	·	8	·
Cc1cc2c(cc1S(=O)(=O)Nc1ccc(C(C)C)cc1)OCCN2C	4.5%	·	0	·
CC1(C)OC(=O)C2(Cc3c(F)cccc3N3CCCC32)C(=O)O1 (stereo unspecified)	-0.4%	·	-25	·
O=C(COc1ccccc1F)Nc1ccc(-c2nc3ccccc3s2)cc1	-0.1%	·	1	·
Cc1ccccc1OCCCn1c(CCNC(=O)C2CCCCC2)nc2ccccc21	0.7%	·	-6	·
CCC(=O)NC(C)c1cc(Cl)c2cccnc2c1O (stereo unspecified)	6.5%	·	14	·
CCN(C(=O)C1CCCN(c2ncnc3onc(-c4ccc(F)cc4)c23)C1)c1ccccc1 (stereo unspecified)	2.2%	·	-2	·
COc1ccc(Br)cc1C1NC(c2ccc3c(c2)OCO3)=CC(c2cc(Cl)ccc2O)N1 (stereo unspecified)	4.0%	·	15	·
Cc1ccc(C(=O)OC2=C(C(=O)c3ccccc3)N(C)S(=O)(=O)c3ccccc32)cc1	0.7%	·	10	·
CCC(=O)NC(c1cccs1)c1cc(Cl)c2ccccc2c1O (stereo unspecified)	?	·	12	·
Cc1csc(CNc2ncnc3ccc(-c4ccc5c(c4)OCCO5)cc23)c1	8.2%	·	-3	·
Cc1ccc(S(=O)(=O)N2CC=C(c3c(C)n(CC(=O)N4CCCC4)c4ccccc34)CC2)cc1C	0.1%	·	29	·
CCn1c(=O)c(=O)n(CC)c2cc(N3CCCCC3)c(NC(=O)c3ccc(Cl)cc3)cc21	-0.9%	·	-3	·
Oc1cc(-c2cccnc2)cc2cccnc12	4.6%	·	0	·
Cn1nnnc1Sc1ncnc2scc(-c3ccc[nH]3)c12	1.8%	·	1	·
O=C(CNC(=O)C1CCCCC1)OC(C(=O)c1ccccc1)c1ccccc1 (stereo unspecified)	-0.3%	·	-11	·
COc1ccc(C(=O)N(Cc2ccco2)Cc2cccs2)cc1	-0.9%	·	-1	·
COc1ccc(-c2ccc3c(N)c(C(=O)Nc4cccc(C)c4)sc3n2)cc1	3.9%	·	13	·
CC(=O)c1ccccc1-c1csc2ncnc(Sc3nnnn3C)c12	25%	·	19	·
CN(c1ccccc1C(=O)O)S(=O)(=O)c1ccc2[nH]c(=O)oc2c1	0.3%	·	-3	·
O=C1c2ccccc2NC(c2ccc(Br)o2)N1O (stereo unspecified)	1.6%	·	5	·
COc1ccc(S(=O)(=O)N2CCN(c3ccc(F)cc3)CC2)cc1-c1noc(C)n1	0.6%	·	-7	·
O=C(NCCc1ccccc1)c1ccc(Cn2c(SCc3cccc(F)c3)nc3cccnc32)cc1	0.2%	·	22	·
CCSc1ncc(Cl)c(C(=O)Nc2sc3c(c2C(=O)NCCCOC)CCCC3)n1	2.5%&-0.8%	·	3	·
COc1ccc(C(=O)Oc2ccc(C(c3c(C)[nH][nH]c3=O)c3c(C)[nH][nH]c3=O)cc2OC)cc1	0.1%	·	-9	·
O=C(Nc1cccc2cccnc12)c1ccc(Br)cc1	0.1%	·	12	·
COc1cc(CNCCCSc2nnnn2C)cc(Br)c1OC	0.9%	·	12	·
O=C(CCS(=O)(=O)c1nc(-c2cccs2)cc(C(F)(F)F)n1)Nc1cc(Br)ccc1O	-0.4%	·	6	·
Cc1cc(C)c2c(c1)C1C=CCC1C(C(=O)O)N2 (stereo unspecified)	-1.1%	·	19	·
O=C(Nc1cccc2cccnc12)C(Cl)(Cl)Cl	-1.6%	·	-1	·
Cc1cc(C)cc(OCCn2c(CCNC(=O)C3CCCCC3)nc3ccccc32)c1	2.0%&1.4%	·	2	·
CC(=O)NC(c1cccs1)c1cc(F)c2cccnc2c1O (stereo unspecified)	-0.9%	·	17	·
COc1ccc(S(=O)(=O)Nc2cccc3cccnc23)cc1	3.2%	·	?	·
CN1CCc2c(sc(NC(=O)CSc3ccccc3)c2-c2nc3ccccc3s2)C1	?	·	10	·
O=S(=O)(Nc1cccnc1)c1cccc2ccccc12	-1.4%	·	25	·
CCNc1nc(C#N)nc2c1ncn2-c1cc(F)cc(F)c1	2.2%	·	-7	·
COc1cccc(C(=O)c2sc3nc(-c4ccccc4)cc(C(F)(F)F)c3c2N)c1	4.5%	·	-4	·
NC(=O)C1CCN(c2nc(-c3ccc4ccccc4c3)cs2)CC1	0.6%	·	-1	·
COc1cc(C(=O)Nc2ccccc2-c2nc(-c3ccccc3)no2)cc(OC)c1OC	3.3%	·	2	·
O=C(O)c1ccc2nc(-c3cc4cccc(O)c4oc3=O)[nH]c2c1	0.8%	·	13	·
CO[C@H]1CN(C)C(=O)c2cc(NC(=O)c3cc(C)on3)ccc2OC[C@@H](C)N(C(=O)C2CC2)C[C@H]1C	·	2	·	1
CO[C@H]1CN(C)C(=O)c2ccc(NC(=O)C3CCC3)cc2OC[C@H](C)N(Cc2ccc(F)cc2)C[C@@H]1C	·	-1	·	0
O=C(Nc1ccc2ccccc2c1)C(C1CC1)n1c(=O)c(-c2cc3ccccc3[nH]2)nc2ccccc21 (stereo unspecified)	·	21	·	44
CO[C@@H]1CN(C)C(=O)c2cc(NC(=O)Nc3cc(F)ccc3F)ccc2OC[C@H](C)NC[C@@H]1C	·	4	·	5
CCOC(=O)[C@]12CCCC=C1N(Cc1ccccc1)C(=O)[C@H](CC(=O)NCCCCc1ccccc1)C2	·	-11	·	-6
O=C(C[C@@H]1CC[C@@H]2[C@H](COC[C@H](O)CN2CCC(F)(F)F)O1)NCc1ccc2c(c1)OCO2	·	3	·	0
CCCCCCCCN1C(=O)[C@H](CC(=O)N2CCC(c3ccccc3)CC2)C[C@@]2(C(=O)OC)CC(C)(C)CC=C12	·	-7	·	-4
CC(C)(C)OC(=O)N1CCc2onc(-c3ccc(-n4cc(C5=CCCCC5)nn4)cc3)c2C1=O	·	3	·	-4
N#Cc1ccc(C2CC(OCCF)=CC(=O)O2)cc1 (stereo unspecified)	·	10	·	14
COc1cccc(C2CC(OCCF)=CC(=O)O2)c1 (stereo unspecified)	·	-20	·	18
CSCCC(C(=O)Nc1c(C)cccc1C)n1c(-c2ccc(C(F)(F)F)cc2)nc2ccccc21 (stereo unspecified)	·	-15	·	11
COC1=CC(=O)OC(c2cccc(OC)c2)C1 (stereo unspecified)	·	-1	·	12

(next part)
molecule	PINK1 expr mod	CtBP-E1A inh	TRPV1 PAM	Six1-Eya2 blk
CCCCNC(=O)c1nc(-c2ccncc2)oc1-c1ccc(OC(F)(F)F)cc1	·	4	·	-4
Cc1ccccc1CN1C(=O)CN(S(C)(=O)=O)CC1(C)C(=O)NC(C)C (stereo unspecified)	·	6	·	3
COc1ccccc1-c1nc2ccccc2n(CC(C)C)c1=O	·	-2	·	0
COc1ccc(C2=Nc3ccccc3N(C(=O)Cc3cc(OC)cc(OC)c3)C2C(=O)NC(C)(C)C)cc1 (stereo unspecified)	·	-2	·	-11
O=C(NC1CCCC1)c1nc(-c2c(F)cccc2F)oc1-c1ccccc1	·	8	·	0
COc1ccc(NC(=O)C(c2ccc(OC)cc2)n2c(=O)c(-c3ccco3)nc3ccccc32)cc1 (stereo unspecified)	·	3	·	-20
COc1ccc(OC)c(CN2C(=O)CN(S(C)(=O)=O)CC2(C)C(=O)NC(C)C)c1 (stereo unspecified)	·	-7	·	-2
CO[C@H]1CN(C)C(=O)c2cc(NC(=O)C3CCCC3)ccc2OC[C@@H](C)NC[C@H]1C	·	-16	·	4

3 entries already listed, arranged by the value under CtBP-E1A inh, descending.
SMILES,CtBP-E1A inh,Six1-Eya2 blk
O=C(NC1CCCC1)c1nc(-c2c(F)cccc2F)oc1-c1ccccc1,8,0
COc1ccc(NC(=O)C(c2ccc(OC)cc2)n2c(=O)c(-c3ccco3)nc3ccccc32)cc1 (stereo unspecified),3,-20
COc1ccccc1-c1nc2ccccc2n(CC(C)C)c1=O,-2,0

Further results:
molecule	PINK1 expr mod	CtBP-E1A inh	TRPV1 PAM	Six1-Eya2 blk
O=C(Nc1c(-c2ccccc2)[nH][nH]c1=O)c1ccc2c(c1)OCO2	·	0	·	11
CCOC(=O)[C@]12CCCC=C1N(Cc1ccccc1)C(=O)[C@H](CC(=O)NCCCOC)C2	·	4	·	3
Cc1ccc(N2CCN(C(C(=O)Nc3c(C)cccc3C)c3ccccc3OC(F)(F)F)CC2)cc1 (stereo unspecified)	·	-3	·	-24
Cc1ccc(S(=O)(=O)C[C@@H]2OC[C@H](C(C)C)N2S(=O)(=O)c2ccc(C)cc2)cc1	·	5	·	5
CCc1ccc(N2C=C(C(=O)OC)C(c3cccc4ccccc34)C(C#N)=C2N)cc1 (stereo unspecified)	·	-9	·	-10
Cc1ccc(S(=O)(=O)N2C3CC(c4ccccc4)N(S(=O)(=O)c4ccccc4Cl)CC3C(=O)C[C@H]2c2ccccc2)cc1 (stereo partly specified)	·	3	·	-1
COc1ccc2cc(C3CC=C(CO)CN3S(=O)(=O)c3ccccc3[N+](=O)[O-])n(C(=O)OC(C)(C)C)c2c1 (stereo unspecified)	·	2	·	-27
CN1CCN(C(=O)C[C@H]2CC[C@H]3[C@@H](COC[C@@H](O)CN3C(=O)C3CCCC3)O2)CC1	·	-22	·	9
